RE007 growth inh – less growth of the S. pombe RE007 Vpr strain | S. pombe RE007 Vpr strain, BacTiter-Glo ATP luminescence, 24 h; control for the full effect not named in the record | Potency, µM (highest dose often 92.2 µM), for the others: top-dose activity change, negative = less growth | 0.21% of 360,000 active | AID 651644; active = well fitted falling curve with a large enough effect; inconclusive = small, poorly fitted or top-dose-only effect; inactive = no such curve, though single readings can be large or run the other way;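 note: nearly all actives have a fitted effect of over 50% in size; the assay follows cell death caused by Vpr and the record does not say whether a fall means rescue or toxicity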
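Fission yeast strain RE007, carrying one chromosomally integrated HIV-1 vpr copy, was seeded at OD 0.01 in PMG+AL medium with 23 nL pinned compound. After 24 h at 30 °C and 99% humidity, viability was read by BacTiter-Glo luminescence.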
StopGo reporter – FMDV 2A StopGo reporter, luciferase signal; 1.2% of 410,000 active; AID 1159524; Potency, µM (highest dose often 57.9 µM), for the others: at the highest dose signal change, negative = less light; human cells with a luciferase reporter of 2A StopGo recoding; control for the full effect not named in the record; active = well fitted falling curve with a large enough effect; inconclusive = small, poorly fitted or top-dose-only effect; inactive = no such curve, though single readings can be large or run the other way; tested in HEK293T cells; note: nearly all actives have a fitted effect of over 45% in size; luciferase light after 4 h
Starred values were filed as active, the others as inactive; ? = inconclusive; [ ] = another dose, or the depositor's remark. % is set by controls: 0 for no effect and ±100 for the full control effect; potency is the fitted concentration of half-maximal effect. These rows are one share of the data (hit frequency here may not be typical).

Start of the listing, in advance:
Structure	RE007 growth inh	StopGo reporter
CC(C)C(=O)NCCc1nc(-c2ccc(Cl)cc2)no1	4%	43%[activator]
CC(C)CNc1ncnc2c1ncn2[C@H]1CN(Cc2ccc(-c3ccccc3)cc2)C[C@@H](CO)O1	-23%	?

The listing, repeating the preview:
Structure	RE007 growth inh	StopGo reporter
CC(C)C(=O)NCCc1nc(-c2ccc(Cl)cc2)no1	4%	43%[activator]
CC(C)CNc1ncnc2c1ncn2[C@H]1CN(Cc2ccc(-c3ccccc3)cc2)C[C@@H](CO)O1	-23%	?
Cc1cc2nc(-c3cccc(Cl)c3)c(CC3CCCCC3)n2c(C)c1Br	-13%	-11%
O=C(/C=C/[C@H]1O[C@@H](n2ccc(=O)[nH]c2=O)[C@H](O)[C@@H]1O)NCc1ccccc1	2%	-9%
COc1ccc(OC)c(CN2CCN(C(=O)c3ccc(S(=O)(=O)N4CCCCCC4)cc3)CC2)c1	-12%	?
O=C(NCCC(F)(F)F)C1Cc2c(-c3ccccc3Oc3ccccc3)ccnc2O1 (configuration not stated)	3%	-8%
O=c1c2ccccc2oc2ccc(C#CC3(O)CCCCC3)cc12	-6%	32µM*
Cc1cccc(C)c1NC(=O)C1C(c2ccc3c(c2)OCO3)=Nc2ccccc2N1C(=O)c1cccc(C(F)(F)F)c1 (configuration not stated)	-4%	-9%
CCCCC(=O)N1C/C=C\[C@H](c2ccc(OC)cc2)N(Cc2ccc(F)cc2)C(=O)[C@@H]1C	-7%	42%
Cc1cc(C)n2c(NC3CCCCC3)c(-c3ccccn3)nc2n1	-15%	0%
COc1ccccc1Cc1c(-c2ccccc2)nc2cc(C)c(Br)c(C)n12	-18%	4%
CN(C)c1ncnc2c1ncn2[C@H]1CN(CCN2CCOCC2)C[C@@H](CO)O1	-6%	-10%
CCc1nc2ccc(C(=O)Nc3cccc(NS(C)(=O)=O)c3)cn2c1N(CC)CCOC	-6%[18.4 µM]	-16%
Cc1ccc(S(=O)(=O)N2C[C@H]3n4c(=O)ccc(=O)n4C[C@H](OC(=O)NC4CCCC4)[C@@]3(O)C2)cc1	-15%	?
CC1(C(=O)NS(=O)(=O)c2ccccc2)CCN1C(=O)CCc1ccccc1 (configuration not stated)	7%	-3%
COc1ccc(-c2nc3ccc(Cl)cn3c2Cc2ccsc2)cc1OC	6%	6%
CNc1nc(NCCCN2CCCC2=O)c2sccc2n1	-11%	1%
CCOc1ccc(-c2cncc3nccn23)cc1	1%[18.4 µM]	10%
CN1OC[C@@H]2CN(Cc3cc(Cl)cc(Cl)c3)[C@H](c3cccc(-c4ccc(C#N)cc4)c3)C[C@@H]21	13%	?
COc1ccc(-c2ccc3c(c2)S(=O)(=O)c2cccc(C(=O)N4CCN(c5ccccn5)CC4)c2C3=O)cc1OC	-2%	-21%
O=C(CN1CCOc2ccccc21)N1CCC(Cc2ccccc2)CC1	-12%	-30%
Cc1ccc(NC(=O)C2CCCO2)c(Br)c1 (configuration not stated)	-22%	41%[activator]
CCN1C[C@@H]2[C@@H]3C(=O)N(Cc4ccccc4)C(=O)[C@@H]3[C@](CC)(C1=O)N2C(=O)c1ccc(Br)cc1	-17%	-19%
Cc1ccc(-c2cnc(C(O)c3ccc(C)cc3)[nH]2)cc1 (configuration not stated)	-3%	18%
CC(=Nc1ccccc1)C1=C(O)C(Cc2cccc(F)c2)NC1=O (configuration not stated)	-17%	0%
OC[C@@H]1CN(Cc2ccc(F)cc2)C[C@H](n2cnc3c(NCc4ccc(F)cc4)ncnc32)O1	-14%	?
CC(C)(C)N1CC(C(=O)Nc2ccc(C(N)=O)cc2)CC1=O (configuration not stated)	-19%	-19%
COc1ccc(CN2C(=O)CSCC2(C)C(=O)NCc2ccccc2)cc1 (configuration not stated)	-6%	-13%
CCOC(=O)CN(C)C(=O)C1CCCN1C(=O)OC(C)(C)C (configuration not stated)	-1%	-7%
O=C1NCN(c2ccccc2)C12CCN(C(c1nnnn1C1CCCCC1)C1CC1)CC2 (configuration not stated)	12%	-12%
CCCN1CCN(C(=O)c2ccc3[nH]c(C)c(C)c3c2)CC1	-11%	-14%
CC1(c2nnnn2-c2ccc3c(c2)OCCO3)CCC(=O)N1Cc1cccnc1 (configuration not stated)	5%	-5%
CCNC(=O)C1(C)CCN1CCC(=O)c1ccc(C)cc1 (configuration not stated)	1%[18.4 µM]	-12%
C=CCNc1ncnc2c1ncn2[C@H]1CN(Cc2ccc3c(c2)OCO3)C[C@@H](CO)O1	1%	-14%
CCC(=O)N1CCC(C)(C(=O)Nc2ccc3c(c2)OCO3)C1 (configuration not stated)	3%	-4%
O=C1NCN(c2ccccc2)C12CCN(C(c1cc3ccccc3o1)c1nnnn1Cc1ccccc1)CC2 (configuration not stated)	5%	-15%
COc1ccc(CCCNC(=O)C2(C)Cc3c(-c4cccc(C(N)=O)c4)ccnc3O2)cc1 (configuration not stated)	-4%[18.4 µM]	?
C=CCCC(=O)N1C[C@@H](CO)[C@@H](NC)C[C@H]1c1ccccc1Br	6%	-4%
Cc1cccc(-c2cc3nc(C)cc(=O)n3[nH]2)c1	-2%	55%[activator]
CSCCC(C(=O)Nc1c(C)cccc1C)N1CCN(c2ccc(C(F)(F)F)cn2)CC1 (configuration not stated)	-2%	-19%
CCOC(=O)C1(C)CCCN(C(=O)c2cccc(Cl)c2)C1 (configuration not stated)	-7%	-22%
C/C=C1\NC(=O)[C@H](C)NC(=O)[C@@H](NC(=O)[C@H](Cc2ccc(O)cc2)NC(=O)[C@@H](NC(=O)/C(C)=C/C)C(C)C)[C@@H](C)OC(=O)[C@H](CCCc2ccc(O)cc2)NC(=O)[C@@H](CCC(=O)OC)NC1=O	9%	-8%
O=C(NCc1ccccc1Cl)c1ccc2sc([C@H]3C[C@H](O)[C@@H](CO)O3)nc2c1	-3%	-5%
CC1=C(C(=O)N2CCOCC2)CC(CC(=O)NC2CCCC2)C(=O)N1Cc1ccccc1 (configuration not stated)	18%	-17%
Cn1ccc2c(-c3cccnc3)cc3c(c21)C1CCC3O1 (configuration not stated)	-1%	-5%
CC(C)(C)S(=O)N1Cc2cc(=O)n(Cc3ccccc3)c(CCO)c2[C@@H]1CCO (some centres not stated)	2%	-4%
O=C(c1cc(Cl)cc(Cl)c1)N1CCC(=O)N([C@H](COCc2ccccc2)Cc2ccccc2)CC1	2%	-24%
NS(=O)(=O)c1cc(Br)c2c(c1)S(=O)(=O)NCN2	-19%	-5%
COc1ccc(NC(=O)c2cc(-c3cc(F)ccc3OC)n[nH]2)cn1	?	7%
C[C@@H]1CN([C@@H](C)CO)C(=O)c2cc(NS(C)(=O)=O)ccc2O[C@@H](C)CCCCO[C@H]1CN(C)C(=O)Nc1ccc2c(c1)OCO2	-6%	0%
O=C(Cc1cccc(NC(=O)C2CCCN(C(=O)C3CCC3)C2)c1)Nc1ccc(C(=O)N2CCOCC2)cc1 (configuration not stated)	6%	-10%
O=C1c2oc3ccc(F)cc3c(=O)c2C(c2ccc(F)cc2)N1CCCN1CCOCC1 (configuration not stated)	-5%	0%
Cn1nccc1-c1ccc(C(=O)NCc2ccco2)c2occc12	9%	38%[activator]
CSc1ccc(CN2CCC2(C)C(=O)Nc2cccc(NS(C)(=O)=O)c2)cc1 (configuration not stated)	-7%[18.4 µM]	-26%
CCN(CC)C(=O)C1=C(C)N(Cc2ccc(OC)cc2)C(=O)C(CC(=O)NCCc2ccccn2)C1 (configuration not stated)	2%	-13%
O=C(/C=C/[C@H]1O[C@@H](n2ccc(=O)[nH]c2=O)[C@H](O)[C@@H]1O)N1CCN(Cc2ccc(F)cc2)CC1	2%	-18%
COc1ccc(C(=O)NCC2(c3ccc(OC)c(OC)c3)CCCC2)cc1OC	-20%	-25%
O=C(Nc1ccc(C(=O)N2CCOCC2)cc1)c1ccccc1Cl	-26%	-5%
COc1ccccc1C(=O)NCC[N+](C)(C)C	9%	-19%
C[C@H]1CN(S(=O)C(C)(C)C)[C@@H](CCO)/C1=C\c1ccccc1 (some centres not stated)	8%	-9%

One compound at a time, from the list above:
`C/C=C1\NC(=O)[C@H](C)NC(=O)[C@@H](NC(=O)[C@H](Cc2ccc(O)cc2)NC(=O)[C@@H](NC(=O)/C(C)=C/C)C(C)C)[C@@H](C)OC(=O)[C@H](CCCc2ccc(O)cc2)NC(=O)[C@@H](CCC(=O)OC)NC1=O` as listed: RE007 growth inh = 9%; StopGo reporter = -8%
`C=CCCC(=O)N1C[C@@H](CO)[C@@H](NC)C[C@H]1c1ccccc1Br` as listed: RE007 growth inh = 6%; StopGo reporter = -4%

The listing continues.
Structure	RE007 growth inh	StopGo reporter
CCCOc1ccc(F)cc1-c1cc(C(=O)Nc2ccc(OC)cc2C)[nH]n1	-3%	-19%
CCc1nc2c(OCc3ccc(F)c(F)c3)cccn2c1N(C)C(=O)c1ccncc1	-4%	-16%
CN(C)CCCOc1ccc(-c2ccc3nccn3c2)cn1	?	-7%
COc1ccc(CCNC(=O)CCCn2c(=S)[nH]c3ccsc3c2=O)cc1OC	-5%	1%
CN(CCOc1ccccc1)C(=O)c1cc(S(=O)(=O)N2CCOCC2)c(Cl)cc1Cl	2%	?
O=C1c2ccccc2C(c2nc3ccccc3[nH]2)N1Cc1ccco1 (configuration not stated)	4%	-7%
COc1ccc(N2C(=O)c3ccccc3NC(=O)C2C(=O)Nc2ccc(N3CCOCC3)cc2)cc1 (configuration not stated)	9%	1%
c1coc(-c2cc3nc(NC4CCCCC4)ccn3n2)c1	-22%[18.4 µM]	19%
COc1ccccc1NC(=O)C1=C(C)Nc2nc(-c3cccnc3)nn2C1c1ccccn1 (configuration not stated)	-2%	?
CC(=O)Nc1cc(-c2ccccc2N(C)C)cn2c(-c3ccc(F)c(Cl)c3)cnc12	1%[18.4 µM]	-19%
O=C(NCc1ccco1)c1cccc2c(-c3ccc(F)c(F)c3)coc12	11%	29%
COc1ccc(CNC(=O)Cn2cc(C)c(=O)[nH]c2=O)cc1	-4%	-7%
CCOC(=O)N(C)c1c(CC)nc2c(OCc3ccccc3OC)cccn12	-27%[18.4 µM]	-17%
COc1ccc(CN(C)C(=O)Cn2cc(C)c(=O)[nH]c2=O)cc1OC	-13%	-23%
C[C@H]1CN([C@@H](C)CO)C(=O)CCCn2nncc2CO[C@H]1CN(C)C(=O)c1ccncc1	15%	-20%
CCNC(=O)C1(C)CCN(Cc2cccc(Oc3ccccc3)c2)C1 (configuration not stated)	-9%[18.4 µM]	-26%
C#CCN(C[C@@H]1[C@@H](OC(=O)NC2CC2)[C@@H](OC(=O)NC2CC2)CN(C(=O)OC(C)C)N1C(=O)OC(C)C)S(=O)(=O)c1ccc(C)cc1	-3%	-1%
CC(C)NC(=O)C1(C)CCCCN1Cc1ccc(OCc2ccccc2)cc1 (configuration not stated)	-3%[18.4 µM]	-15%
C[C@@H]1CCCCO[C@@H](CN(C)C(=O)c2ccncc2)[C@@H](C)CN([C@H](C)CO)C(=O)c2cc(N(C)C)ccc2O1	-9%	2%
Cc1cccc(NC(=O)c2nc[nH]c2C(=O)Nc2cc(Br)ccc2F)c1	-7%	-17%
CC1(C(=O)O)CCCN(C(=O)c2ccc(F)cc2Cl)C1 (configuration not stated)	5%	-5%
COc1c2c(c(OC)c3ccccc13)[C@]1(OC2)O[C@H](CCO)C[C@H](O)[C@H]1O	12%	-3%
COC(=O)[C@@]12C[C@@H](CC(=O)N3CCOCC3)C(=O)N(Cc3ccc4c(c3)OCO4)C1=CCC(C)(C)C2	4%	-8%
CCCCCCN1C[C@H](n2cc(C3CC3)nn2)[C@@H](O)C[C@@H]1c1ccc(OC)cc1	-11%	-16%
CCN(C(=O)c1c([N+](=O)[O-])cnn1C)c1ccccc1	0%	-2%
C[C@H]1CN([C@@H](C)CO)C(=O)CCCn2cc(nn2)CO[C@@H]1CN(C)C(=O)OCc1ccccc1	9%	-5%
Cc1cccc(C)c1NC(=S)NC(=O)c1cccc(Cl)c1	-16%[18.4 µM]	-9%
O=C(CC[C@H]1O[C@@H](n2cnc3c(NC(=O)c4ccccc4)ncnc32)[C@H](O)[C@@H]1O)N[C@@H](CO)c1ccccc1	-5%	-16%
CN(C)CCCNc1nc2cc(-c3cncnc3)sc2c(=O)n1C	-14%[18.4 µM]	0%
COc1ccc([C@H]2C[C@@H](O)C[C@@H](CCn3cc(-c4ccccc4)nn3)O2)cc1	0%	-11%
O=C(Nc1ccccc1)c1nc[nH]c1C(=O)Nc1ccccc1F	3%	-14%
CC(=O)C1=CN(Cc2ccccc2)CCC1=O	-1%	-24%
COc1ccc(Cl)cc1NC(=O)C1CC(c2ccccc2Cl)=NO1 (configuration not stated)	6%	-25%
CC1(C(=O)Nc2ccc(F)cc2F)CCN1C(=O)Cc1ccccc1 (configuration not stated)	5%	-16%
CC(=O)c1c(C)[nH]c(C(=O)OCC(=O)N2CCN(c3ccccc3)CC2)c1C	-7%	-22%

Screening results as filed in PubChem.
